High-throughput results from PubChem BioAssay.
NS1 inh: qHTS Assay for Inhibitors of Influenza NS1 Protein Function; S. cerevisiae slowed by influenza A NS1, growth recovery by OD600; Potency, µM (highest dose often 46.1 µM), without a hit: top-dose activity, positive = more growth; hit rate 0.4% among 270,000; AID 2326, 2010; note: actives are rising curves; nearly all actives have a fitted effect of over 50% in size
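Compounds were scored for reversing the slow growth caused by influenza A NS1 in S. cerevisiae, measured by optical density at 600 nm. Assay medium contained 2% galactose at pH 6.0; NS1-free yeast of the same strain were the positive control.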
StopGo reporter: High Throughput Screening for Foot and Mouth Disease Virus Antivirals; human cells with a luciferase reporter of 2A StopGo recoding; control for the full effect not named in the record; Potency, µM (highest dose often 57.9 µM), inactives show top-dose signal change, negative = less light; hit rate 1.2% among 410,000; active = well fitted falling curve with a large enough effect; inconclusive = small, poorly fitted or top-dose-only effect; inactive = no such curve, though single readings can be large or run the other way; tested in HEK293T cells; note: % is set by controls: 0 for no effect and ±100 for the full control effect; nearly all actives have a fitted effect of over 45% in size; luciferase light after 4 h
RE007 growth inh: qHTS Assay for Inhibitors of the HIV-1 protein Vpr | S. pombe RE007 Vpr strain, BacTiter-Glo ATP luminescence, 24 h; control for the full effect not named in the record | Potency, µM (titrated, usually from 92.2 µM), without a hit: top-dose activity change, negative = less growth | hit rate 0.21% among 360,000 | AID 651644, 2012; active = well fitted falling curve with a large enough effect; inconclusive = small, poorly fitted or top-dose-only effect; inactive = no such curve, though single readings can be large or run the other way;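 note: % is set by controls: 0 for no effect and ±100 for the full control effect; nearly all actives have a fitted effect of over 50% in size; the assay follows cell death caused by Vpr and the record does not say whether a fall means rescue or toxicity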
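Fission yeast strain RE007, carrying one chromosomally integrated HIV-1 vpr copy, was seeded at OD 0.01 in PMG+AL medium with 23 nL pinned compound. After 24 h at 30 °C and 99% humidity, viability was read by BacTiter-Glo luminescence.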
MARV entry inh: qHTS for inhibitors of binding or entry into cells for Marburg Virus | hit rate 1.8% among 300,000 | Marburg virus pseudotyped entry inhibition, cell reporter; control for the full effect not named in the record; about a third of the inactives were read at about 46 µM | AID 540276, 2011 | Potency, µM (top dose mostly 37.8 µM), without a hit: at the top dose activity change, negative = inhibition, most hits filed as inhibitors; active = well fitted inhibition curve with a large enough effect; inconclusive = small, poorly fitted or top-dose-only effect, or effect the other way; inactive = flat fitted curve, though single readings scatter; tested in HEK293 cells; about a fifth of its hits are not listed in these tables; note: % is set by controls: 0 for no effect and ±100 for the full control effect; luciferase read-out
Cruzain inh Det: qHTS Assay for Promiscuous and Specific Inhibitors of Cruzain (with detergent). purified cruzain, Z-FR-AMC fluorescence, 0.01% Triton. AID 1478, 2009. Cruzipain (Trypanosoma cruzi), P25779. hit rate 0.43% among 200,000. Potency, µM, for the others: max response, negative = inhibition, hits mostly inhibitors; active = well fitted curve in the direction sought with a large enough effect; inconclusive = small, poorly fitted or top-dose-only effect, or another doubt; inactive = no such curve, though single readings can be large; an effect the other way counts as inactive or inconclusive;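 note: plate controls were neutral wells for no effect and buffer without enzyme for full effect; nearly all actives have a fitted effect of over 40% in size; top concentration of the series not given in the record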
Target sequence (P25779 123-467 limits assumed): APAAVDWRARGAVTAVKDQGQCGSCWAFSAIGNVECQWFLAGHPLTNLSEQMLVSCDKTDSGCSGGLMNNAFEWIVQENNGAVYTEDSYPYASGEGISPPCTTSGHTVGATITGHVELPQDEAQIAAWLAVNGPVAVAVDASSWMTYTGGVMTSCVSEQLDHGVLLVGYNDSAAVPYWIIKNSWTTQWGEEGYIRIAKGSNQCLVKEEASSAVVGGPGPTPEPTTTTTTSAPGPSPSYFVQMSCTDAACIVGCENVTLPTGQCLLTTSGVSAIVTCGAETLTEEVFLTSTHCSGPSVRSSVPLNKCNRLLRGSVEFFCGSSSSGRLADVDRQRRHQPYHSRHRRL
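Purified cruzain (1.5 nM final) was preincubated with compounds for 15 min at room temperature in 100 mM sodium acetate pH 5.5, 5 mM DTT, 0.01% Triton X-100. Reaction started with 2 uM Z-FR-AMC; AMC fluorescence change over 60 s gave activity.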
SARS PLpro yeast: qHTS of Yeast-based Assay for SARS-CoV PLP; hit rate 0.19% among 330,000; Potency, µM (series often up to 32.9 µM), for the others: at the top dose activity, positive = growth rescue; AID 485353, 2010; S. cerevisiae expressing SARS-CoV PLpro, growth rescue; control for the full effect not named in the record; note: 0% is about no effect; nearly all actives have a fitted effect of over 55% in size; growth read by luminescence after 48 h
Cruzain noTriton: qHTS Assay for Promiscuous and Specific Inhibitors of Cruzain (without detergent); Potency, µM, for inactives: max response, negative = inhibition, most hits filed as inhibitors; Cruzipain (Trypanosoma cruzi), P25779; purified cruzain, Z-FR-AMC fluorescence, no detergent; hit rate 2.3% among 200,000; active = well fitted curve in the direction sought with a large enough effect; inconclusive = small, poorly fitted or top-dose-only effect, or another doubt; inactive = no such curve, though single readings can be large; an effect the other way counts as inactive or inconclusive;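 note: plate controls were enzyme without inhibitor for no effect and buffer without enzyme for full effect; nearly all actives have a fitted effect of over 40% in size; top concentration of the series not given in the record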
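Purified cruzain at 1.5 nM, pre-incubated 15 min with compound at room temperature in 100 mM sodium acetate pH 5.5, 5 mM DTT, 0.00005% Triton X-100. Reaction started with 2 uM Z-FR-AMC; AMC fluorescence increase over 60 s gives rate.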
Lassa entry inh: qHTS for Inhibitors of binding or entry into cells for Lassa Virus | Lassa virus pseudotype entry inhibition, cell reporter; control for the full effect not named in the record | Potency, µM (doses to about 37.9 µM), for the others: at the highest dose activity change, negative = inhibition, most hits filed as inhibitors | hit rate 1.2% among 300,000 | AID 540256, 2011; active means well fitted inhibition curve with a large enough effect; inconclusive means small, poorly fitted or top-dose-only effect, or effect the other way; inactive means flat fitted curve, though single readings scatter; tested in HEK293 cells; note: % is set by controls: 0 for no effect and ±100 for the full control effect; nearly all actives have a fitted effect of over 50% in size; luciferase read-out
* marks the source's active call; other numbers are inactive results; ? = inconclusive; / = not tested or not shown; & = joins results of further samples; [ ] = another dose, or the depositor's remark. Unless noted, calls come from the whole dose curve; as a rule, active means well fitted rising curve with a large enough effect; inconclusive means small, poorly fitted or top-dose-only effect; inactive means no such curve, though single readings can be large or run the other way. Potency is the fitted concentration of half-maximal effect.

SMILES	NS1 inh	StopGo reporter	RE007 growth inh	MARV entry inh	Cruzain inh Det	SARS PLpro yeast	Cruzain noTriton	Lassa entry inh
Cc1ccc(NC(=O)C(C)OC(=O)CCC2CCCCC2)cc1 (stereo unspecified)	/	-20%	28%	-6%[46.1 µM]	/	0%	/	0%
COC(C[C@@H](O)CC(=O)COCc1ccccc1)OC	-2%	-11%	6%	/	/	1%	/	/
Cc1nn2c(-c3ccccc3)nnc2c2ccccc12	-37%	36%[activator]	?	-3%	0.6%	-13%	-1%	6%
O=C(CNC(=S)N(Cc1ccccc1)Cc1cccnc1)NC1CCCCC1	-3%	21%	-5%	-13%	-3.1%	4%	6%	14%
Cn1c(=O)oc2cc(S(=O)(=O)NCc3ccc(C(=O)O)cc3)ccc21	6%	21%	1%	/	/	-1%	/	/
C1CCN(C2CCN(c3nc4nonc4nc3N3CCSCC3)CC2)C1	4%	34%[activator]	-7%	6%[46.1 µM]	/	0%	/	0%
COc1cc2c(cc1NCc1ccc3c(c1)OCO3)oc1ccccc12	9%	46%[activator]	-2%	?	-13%	1%	?	?
CC(C)CCN1CC(C(=O)NC(C)C)CC1=O (stereo unspecified)	9%	/	7%	6%	1.1%	1%	-3%	0%
CCOC(=O)CSc1nnc(CSc2nc3sc4c(c3c(=O)[nH]2)CCC4)n1C	-1%	8%	-5%	-3%&-3%	-1.6%	0%	-22%	8%
CCOC(=O)c1c(C)c(-c2ccccc2)n(CC(=O)Nc2cccc(F)c2)c1C	/	8%	/	?	-5.4%	/	-2%	/
Cc1ccc(CNC(=O)c2c(-c3ccccc3Cl)noc2C)o1	/	-23%	/	/	0.5%	/	-7%	-7%[46.1 µM]
CCCS(=O)(=O)N1CCCC(C(=O)NCc2ccco2)C1 (stereo unspecified)	-1%	-5%	4%	17%	3.8%	?	1%	9%
COc1ccc(-c2nc(SCC(=O)NC3CCCCC3)n[nH]2)cc1	-2%	-27%	-8%	/	/	0%	/	/
COc1ccc(CC(=O)Nc2sc3c(c2C(=O)Nc2cccc(C)c2)CCCCC3)cc1	/	29%	/	/	-7.2%	/	-12%	-21%[46.1 µM]
CCOc1ccc(NC(=O)CC2C(=O)N(c3ccccc3)C(=O)N2Cc2cccc(OC)c2)cc1 (stereo unspecified)	/	13%	/	/	-3.8%	/	-7%	0%[46.1 µM]
CCOC(=O)Nc1ccc2c(CN3CCN(S(=O)(=O)c4ccccc4)CC3)cc(=O)oc2c1	8.9µM*	9%	-9%	-23%	-0.6%	?	13µM*	-16%
O=C(NC1CCCC1)c1ccc2c(c1)N(Cc1ccccc1)CCS2	5%	5%	0%	/	/	7%	/	/
Cn1c(SCC(=O)c2ccc(F)cc2)nnc1-c1ccccc1N	9%	6%	11%	-13%[46.1 µM]	4.9%	-2%	-1%	-3%
COC(=O)CCC(=O)Nc1ccc(N=Nc2ccccc2)cc1	/	22%	30%	-11%[46.1 µM]	/	0%	/	?
Clc1ncnc2c1oc1ccccc12	3%	58%[activator]	-21%	?	-8.7%	-2%	-10%	?
COCc1cc([C@@H]2C[C@H]3CN(c4ccccc4)C(=O)[C@]34CCCN24)ccc1OC	3%	11%	1%	/	/	1%	/	/
CCCNC(=O)CSc1nnc(-c2ccco2)n1C	4%	0%	-19%	15%	6.6%	5%	4%	18%
CCOCCCNC(=O)C1CCN(c2cc(C)nc3c(-c4ccc(OC)c(OC)c4)c(C)nn23)CC1	-5%	74%	-1%	-24%&-24%	-2.7%	0%	?	-12%
CCOc1ccccc1N1CCN(C(=O)CCNS(=O)(=O)c2ccccc2F)CC1	/	-12%	4%	-28%	/	-1%	/	1%
Cn1cnnc1SCC(=O)NCCC(c1ccccc1)c1ccccc1	-1%	-19%	11%	-21%	0.9%	-3%	10%	13%

The listing continues.
SMILES	NS1 inh	StopGo reporter	RE007 growth inh	MARV entry inh	Cruzain inh Det	SARS PLpro yeast	Cruzain noTriton	Lassa entry inh
O=C1CC(N2CCN(C3CC(=O)N(CCc4ccccc4)C3=O)CC2)C(=O)N1CCc1ccccc1 (stereo unspecified)	-37%	/	15%	-3%&-27%	-5.3%	4%	?	-8%
CCOC(=O)C1(C/C(C)=N/NC(N)=O)CC(C)OC1=O (stereo unspecified)	24%	13%	4%	5%	-3.2%	?	4%	?
CCOc1ccc(NC(=O)c2sc3nc4c(cc3c2N)CCCCCC4)cc1	/	0%	/	6%[46.1 µM]	-1.6%	/	16%	-3%[46.1 µM]
CCOc1ccc2nc(Cl)c(C3CC(c4ccc(C)cc4)=NN3C(=O)CCCC(=O)O)cc2c1 (stereo unspecified)	/	0%	/	-11%[46.1 µM]	-1.5%	/	-11%	-18%[46.1 µM]
COc1ccc(C(=O)N/C(=C\c2cn(C)c3ccccc23)C(=O)OCC(C)C)cc1	14%	-11%	7%	-11%	-7.7%	-5%	6%	-2%
CCCS(=O)(=O)N1CCCC(C(=O)N2CCOCC2)C1 (stereo unspecified)	0%	-2%	-12%	1%	3.6%	-1%	-7%	10%
Cc1nc(CCNC(=O)CC2C(=O)NCCN2Cc2ccoc2)nc2c1CCCC2 (stereo unspecified)	-3%	-15%	6%	/	/	0%	/	/
CC(=O)c1c(N)[nH]c(-c2ccccc2)nc1=S	5%	-6%	4%	1%	-4.3%	-1%	-23%	7%
O=c1ccc(Oc2nc(N3CCOCC3)nc(N3CCOCC3)n2)n[nH]1	0%	2%	11%	23%	-0.6%	-2%	-7%	26%
CCOc1ccc2[nH]c(S(=O)(=O)CC)nc2c1Cl	-4%	-2%	4%	0%	2.9%	/	4%	?
COC(=O)c1sc(NC(=O)CSc2nnnn2-c2cccc(OC)c2)nc1C	13%[9.22 µM]	0%	-8%	-2%	-0.3%	-8%	4%	-22%
O=C(NCCC(=O)N1CCC2(CC1)NCCc1[nH]cnc12)c1cccc(Cl)c1	-8%	-11%	-4%	?	/	-1%	/	-1%[46.1 µM]
CCOc1ncccc1C(=O)N(CC)CC(=O)NCc1ccc(Cl)cc1	-5%	-3%	-21%	5%[46.1 µM]	/	-2%	/	/
COc1cccc(CN2C(=O)c3ccccc3C2C(=O)NCCc2ccccc2)c1 (stereo unspecified)	/	0%	/	?	-5.0%	/	-8%	?
Cc1ccccc1CC(=O)Nc1cc(C(C)(C)C)on1	-4%	39%[activator]	10%	-4%[46.1 µM]	/	9%	/	21%[46.1 µM]
Cc1cccc(-c2ncc(CN3CCCC(CO)(Cc4ccccc4C)C3)cn2)c1 (stereo unspecified)	1%	-28%	-2%	/	/	-2%	/	/
COC(=O)CCC(=O)OC1(C)C(=O)C=C2C=C3CCCN3C=C2C1=O (stereo unspecified)	2%	-14%	-6%	-43%&-43%[14.2 µM]	/	0%	/	/
CCOC(=O)c1sc(NC(=O)CCCCCN2C(=O)c3cccc4cccc(c34)C2=O)nc1C	6%	4%	-3%	?	3.1%	5%	0%	-28%
Cc1ccc(CCNC(=O)CCS(=O)(=O)c2cc3c(cc2C)NC(=O)CO3)cc1	-3%	-19%&0%	0%	/	-6.0%	2%	12%	-14%[46.1 µM]
Clc1ccc(OCCSCc2nc3ccccc3[nH]2)cc1	-36%	?	-30%	-7%	?	-34%	25µM*	3%
COc1ccc(OC)c(NC(=O)Cc2ccc(NC3=NC4CS(=O)(=O)CC4S3)cc2)c1 (stereo unspecified)	9%	6%	15%	/	/	-4%	/	/
Nc1ncnc2c1ncn2C1OC(COP(=O)(O)O)C(O)C1O (stereo unspecified)	2%	5%&2%	?	/	3.3%	-40%	11%	/
Cc1cccc(NC(=S)NCCO)c1C	-14%	-4%	1%	29%	1.6%	-10%	9%	-3%
CN(CCCNC(=O)CSc1cc(=O)n(C)c2ccc(Cl)cc12)Cc1ccccc1	/	-4%	-8%	?	/	3%	/	-9%[46.1 µM]
COC(=O)c1ccc2c(c1)N(Cc1ccccc1F)C(=O)c1ccccc1S2=O (stereo unspecified)	-20%	?	-6%	11%	1.7%	3%	-10%	0%

Later entries:
SMILES	NS1 inh	StopGo reporter	RE007 growth inh	MARV entry inh	Cruzain inh Det	SARS PLpro yeast	Cruzain noTriton	Lassa entry inh
O=C(O)c1cc(-c2cccnc2)nn1-c1ccccn1	-7%	-21%	10%	-2%	3.3%	7%	8%	-18%
CC(C)OCCCNC(=S)N1CCC(C(=O)c2ccc(Cl)cc2)CC1	-11%	-6%	0%	?	/	8%	/	-19%
CCCC(=O)N1c2ccccc2C(=C2SC(C(=O)OC)=C(C(=O)OC)S2)C(=S)C1(C)C	15%	?	-8%	3%	-8.1%	?	?	0%
CC(=O)Nc1nc2cccc([N+](=O)[O-])c2s1	-7%	27%	-3%	20%[46.1 µM]	/	-1%	/	8%[46.1 µM]
COc1ccc(S(=O)(=O)Nc2cccc(S(=O)(=O)N3CCCCCC3)c2)cc1	-11%	25%	36%	4%	-5.3%	8%	2%	-11%
O=C(NNc1ccc([N+](=O)[O-])cc1)C1CC1c1ccccc1 (stereo unspecified)	-49%	-12%	37%	-15%	-7.5%	-6%	?	-8%
CCc1ccc(N2CC(C(=O)NC3=NCCS3)CC2=O)cc1 (stereo unspecified)	0%	8%	6%	1%	1.8%	2%	4%	-1%
Cc1nc2cc(NC(=O)CCS(=O)(=O)c3ccccc3)ccc2s1	-2%	24%	3%	-1%	-2.9%	12%	-2%	/
Cc1cc(C=O)c(C)n1-c1ccc2c(c1)OCO2	0%	11%	8%	/	/	-1%	/	/
CCCOc1cc(C)nc(-c2ccccc2O)n1	1%	5%	-15%	4%	-1.9%	5%	-1%	7%
COc1ccccc1NS(=O)(=O)c1cc2c(cc1C)NC(=O)CO2	17%	-8%	6%	/	/	-2%	/	/
